# GIV-Gai inh – blocks GIV peptide binding to rat Galpha-i3; AID 1224905; P08753; 210,000 compounds, 0.42% hits; percent of control (FP), % (concentration not given with the values); Galpha-i3/FITC-GIV peptide fluorescence polarization, 90 min; active compounds read low; scaled: aluminum fluoride 0%, vehicle 100%;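 active means replicate mean at 85% of control or lower, very high polarization wells dropped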;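 further: wells of about 15 µL received 100 nL stock; the first replicate is given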
# Target sequence (P08753 whole entry, looked up): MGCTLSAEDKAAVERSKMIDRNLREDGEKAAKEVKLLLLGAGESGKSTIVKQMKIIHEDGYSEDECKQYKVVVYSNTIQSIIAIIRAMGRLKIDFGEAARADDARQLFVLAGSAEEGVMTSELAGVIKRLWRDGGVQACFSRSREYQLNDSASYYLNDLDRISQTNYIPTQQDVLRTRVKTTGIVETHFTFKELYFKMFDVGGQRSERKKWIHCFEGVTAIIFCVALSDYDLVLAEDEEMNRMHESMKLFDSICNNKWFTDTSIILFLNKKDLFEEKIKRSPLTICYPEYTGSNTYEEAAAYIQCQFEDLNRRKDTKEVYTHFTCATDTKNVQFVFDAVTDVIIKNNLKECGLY
# HCMV UL50-53 inh – cytomegalovirus nuclear egress complex inhibition; inhibition, % (no concentration beside the values); HTRF UL50-UL53 interaction, normalized percent inhibition; 190,000 compounds, 0.15% hits;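 active means both replicates at 50% or more, plus weaker picks with an unusually low signal ratio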;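 further: stock transfer was 100 nL into about 20 µL; 0% = negative control wells and 100% = wells with untagged competitor protein; inactives centre near -12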
# Sa growth 42C – inhibitors of Staphylococcus aureus growth at 42 °C | relative growth, % (no concentration beside the values) | 170,000 compounds, 0.53% hits | S. aureus RN4220 growth, OD600, 20 h; active compounds read low | AID 720641;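 active means growth at 42 °C up to 50% and 20 or more points under that at 30 °C, or under 10% at both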;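 further: 300 nL library stock went into each well; scaled to the means of positive and negative controls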
# Sa growth 42C second temp – also measured in Sa growth 42C; calls as there; relative growth, %; measured here: growth at 30 °C;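 optical density after 20 h as mean of two plates; 100% = untreated growth and lower means inhibition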
# * = called active by the depositor; x = no result given; & = joins results of further samples. Not a hit list; overall some 0.85% were active at least once.
molecule,Sa growth 42C,GIV-Gai inh,HCMV UL50-53 inh,Sa growth 42C second temp
COc1ccc(CCNC(=O)C(=O)NCC(c2ccco2)S(=O)(=O)c2ccc(F)cc2)cc1 (stereo not drawn),134,96,x,73
CN1CCS/C1=C\C=C1/SC(=S)N(c2ccccc2)C1=O,99,112,-55,91
COC(=O)C1=C(C)N(Cc2ccccc2)C(=O)/C1=C\c1cccc(O)c1,87,108,-5,64
O=C(N/N=C(\Cc1ncc[nH]1)c1ccccc1)c1ccncc1,85,x,-48,51
Cc1ccccc1NC(=O)Cn1c(=O)n(Cc2ccc(F)cc2)c(=O)c2cccnc21,105,104,-11,92
Cn1nc(SCC(=O)O)c(=O)n(C)c1=O,99,x,-24,91
Cc1cccc(NC(=O)Nc2nnc(N(C)Cc3ccccc3)s2)c1,84,108,5,96
Cc1ccccc1-c1nc2scc(CCNC(=O)COc3ccccc3)n2n1,x,104,5,x
CCOc1ccccc1NC(=O)c1cc(S(=O)(=O)N2CCOCC2)cn1C,90,99,-4,81
CN(C)n1cccc1/C=C(\C#N)S(C)(=O)=O,119,99,-13,83
Cc1ccc(Sc2c(C)nn(-c3ccccc3)c2OC(=O)C(C)(C)C)cc1,94,105,-13,62
Cc1cccn2cc(CNC(=O)COc3ccccc3)nc12,108,109,-4,94
C=CCN(CC=C)S(=O)(=O)Cc1ccc(Cl)cc1,103,109,6,103
COc1ccc(C2C(C(=O)N3CCCC(C)C3)CCC(=O)N2c2cc(OC)c(OC)c(OC)c2)cc1 (stereo not drawn),108,104,-2,85
CN1C(=O)Cc2cc(S(=O)(=O)Nc3ccc(N4CCOCC4)cc3)ccc21,79,102,-4,81
O=C(OCc1ccccc1)c1cc2cc(Br)cc(Br)c2oc1=O,113,x,-8,86
Cc1ccc(C(C)C)cc1S(=O)(=O)NCc1ccc2c(c1)OCO2,106,98,-7,96
O=c1cc(O)n(-c2ccccc2)c(=S)[nH]1,106,106,3,83
Cc1ccc2oc(=O)c3cc(C(=O)N(C)CCC#N)sc3c2c1,100,110,-64,93
CSc1nc2nc3c(cn2n1)C(=O)CC(C)C3 (stereo not drawn),x,105,4,x
CCc1ccc2nc(N(CCN(CC)CC)C(=O)c3cccs3)sc2c1,115,103,x,98
Cc1ccc(N2CC(C)Cn3c2nc2c3c(=O)n(Cc3cccc(Cl)c3)c(=O)n2C)cc1 (stereo not drawn),97,98,-6,89
CCC1CCCCN1S(=O)(=O)c1ccc(S(=O)(=O)N2CCN(c3ncccn3)CC2)cc1 (stereo not drawn),87,100,-13,86
CN(C)S(=O)(=O)c1ccc(C(=O)NCCSc2c(-c3ccc(Br)cc3)[nH]c3ccccc23)cc1,98,104,-14,98
Cc1occc1-c1nnc(SCC(=O)N(C)C2CCCCC2)o1,x,98,-22,x
Cc1ccc(N2CCn3c(nc4ccccc43)C2)cc1NS(C)(=O)=O,x,98,7,x
CC(C)(O)C(=O)/C=C/c1ccc2c(c1)OCO2,95,84*,-4,76
CN(C)c1ccc(C2CC(c3c(-c4ccccc4)c4cc(Cl)ccc4[nH]c3=O)=NN2C(=O)CCCC(=O)O)cc1 (stereo not drawn),x,101,-25,x
c1ccc2c(N3CCC(N4CCCCC4)CC3)nnc(Cc3ccncc3)c2c1,94,101&103,4&-21,87
COc1ccc2nc(N(CCN(C)C)C(=O)c3cccs3)sc2c1,86,103,x,84
Cc1c(S(=O)(=O)Nc2ccc(Cl)cc2)sc2ccc(Cl)cc12,57,102,19,78
O=C(COn1nnc2ccc(S(=O)(=O)N3CCOCC3)cc21)N1CCCc2ccccc21,78,x,-26,80
c1ccc(CCn2nnnc2C(c2cccnc2)N2CCCCC2)cc1 (stereo not drawn),119,105,-11,81
CCOc1ccc2c(c1)OC(c1ccc(OC)cc1)(C(F)(F)F)NC2=O (stereo not drawn),69,x,-29,74
COc1ccc(Cl)cc1Nc1nc2ccccc2c2nncn12,x,104,-18,x
C=CCn1c(-c2ccc(OC)cc2)c(C)sc1=Nc1ccc(C)cc1,90,98,x,80
COc1cc2c(C(=O)N(C)c3cccc(C(F)(F)F)c3)cn(CC(C)C)c(=O)c2cc1OC,93,108,9,87
CC(=O)N1c2ccccc2CC1C(=O)N1CCN(c2ccc(Cl)cc2)CC1 (stereo not drawn),85,100,-7,49
COc1ccc(C2CC(=O)C3=C(C2)NC(C)=C(C(=O)Nc2ccc(C)cc2)C3c2ccccc2)cc1OC (stereo not drawn),100,106,-12,88
COc1cc(S(=O)(=O)n2cccn2)c(OC)cc1Cl,98,98,x,87
O=C(CCCn1c(=O)c2sccc2n(Cc2cccc(Cl)c2)c1=O)NCc1ccc2c(c1)OCO2,107,107,1,92
Cc1cc(-c2nc3ccccc3s2)ccc1NC(=O)c1ccc2c(c1)OCCO2,x,98,-13,x
Oc1ccc(/C=N\N2CCN(c3ccccc3)CC2)cc1,94,104,-23,92
Cc1[nH]c(C(=O)N2CCN(c3ccccc3F)CC2)c(C)c1S(=O)(=O)N1CCC(C)CC1,x,108,-41,x
Cc1cccc(CSC(=N)N)c1,91,x,-13,94
C=CCn1c2ccccc2c2nnc(SCC(=O)NC(C)(C)C)nc21,81,103,-18,89
Cc1ccc(CN2CCN(N=Cc3ccccc3O)CC2)c(C)c1,117,112,-4,100
CS(=O)(=O)CCNCc1ccc(-c2ccc3ncnc(Nc4ccc(OCc5cccc(F)c5)c(Cl)c4)c3c2)o1,82,103,-32&-13&-12&-14&-11&-15&-13&-8&-4,82
Oc1ccc(-c2nc3cc4ccccc4cc3nc2-c2ccccc2)cc1,80,112,x,43
COc1ccc(C2C(C(=O)NCc3cccnc3)c3ccccc3C(=O)N2c2ccc(OC)cc2)cc1 (stereo not drawn),108,105,x,86
CCCCOc1ccc(C(=O)NOCC(=O)NC2CCCCC2)cc1OC,86,x,-18,90
Cc1ccc2[nH]c(=O)c(CC3CC(c4ccccc4)=NN3C(=O)CCC(=O)O)cc2c1 (stereo not drawn),80,104,6,81
COCCn1cnc2ccccc21,103,x,-4,91
CCOC(=O)CSc1n[nH]c(CC)n1,109,98,7,101
CC(=O)c1ccc(NC(=O)Cn2ncc3c(C)n(Cc4ccc(F)cc4)c(C)c3c2=O)cc1,103,105,-13,86
O=c1ccc(N2CCCCC2)n[nH]1,100,105,-18,89

# 23 neighbouring entries out of the list so far, quoted:
molecule,Sa growth 42C,GIV-Gai inh,HCMV UL50-53 inh,Sa growth 42C second temp
CCOc1ccc2c(c1)OC(c1ccc(OC)cc1)(C(F)(F)F)NC2=O (stereo not drawn),69,x,-29,74
COc1ccc(Cl)cc1Nc1nc2ccccc2c2nncn12,x,104,-18,x
C=CCn1c(-c2ccc(OC)cc2)c(C)sc1=Nc1ccc(C)cc1,90,98,x,80
COc1cc2c(C(=O)N(C)c3cccc(C(F)(F)F)c3)cn(CC(C)C)c(=O)c2cc1OC,93,108,9,87
CC(=O)N1c2ccccc2CC1C(=O)N1CCN(c2ccc(Cl)cc2)CC1 (stereo not drawn),85,100,-7,49
COc1ccc(C2CC(=O)C3=C(C2)NC(C)=C(C(=O)Nc2ccc(C)cc2)C3c2ccccc2)cc1OC (stereo not drawn),100,106,-12,88
COc1cc(S(=O)(=O)n2cccn2)c(OC)cc1Cl,98,98,x,87
O=C(CCCn1c(=O)c2sccc2n(Cc2cccc(Cl)c2)c1=O)NCc1ccc2c(c1)OCO2,107,107,1,92
Cc1cc(-c2nc3ccccc3s2)ccc1NC(=O)c1ccc2c(c1)OCCO2,x,98,-13,x
Oc1ccc(/C=N\N2CCN(c3ccccc3)CC2)cc1,94,104,-23,92
Cc1[nH]c(C(=O)N2CCN(c3ccccc3F)CC2)c(C)c1S(=O)(=O)N1CCC(C)CC1,x,108,-41,x
Cc1cccc(CSC(=N)N)c1,91,x,-13,94
C=CCn1c2ccccc2c2nnc(SCC(=O)NC(C)(C)C)nc21,81,103,-18,89
Cc1ccc(CN2CCN(N=Cc3ccccc3O)CC2)c(C)c1,117,112,-4,100
CS(=O)(=O)CCNCc1ccc(-c2ccc3ncnc(Nc4ccc(OCc5cccc(F)c5)c(Cl)c4)c3c2)o1,82,103,-32&-13&-12&-14&-11&-15&-13&-8&-4,82
Oc1ccc(-c2nc3cc4ccccc4cc3nc2-c2ccccc2)cc1,80,112,x,43
COc1ccc(C2C(C(=O)NCc3cccnc3)c3ccccc3C(=O)N2c2ccc(OC)cc2)cc1 (stereo not drawn),108,105,x,86
CCCCOc1ccc(C(=O)NOCC(=O)NC2CCCCC2)cc1OC,86,x,-18,90
Cc1ccc2[nH]c(=O)c(CC3CC(c4ccccc4)=NN3C(=O)CCC(=O)O)cc2c1 (stereo not drawn),80,104,6,81
COCCn1cnc2ccccc21,103,x,-4,91
CCOC(=O)CSc1n[nH]c(CC)n1,109,98,7,101
CC(=O)c1ccc(NC(=O)Cn2ncc3c(C)n(Cc4ccc(F)cc4)c(C)c3c2=O)cc1,103,105,-13,86
O=c1ccc(N2CCCCC2)n[nH]1,100,105,-18,89

# (listing goes on)
molecule,Sa growth 42C,GIV-Gai inh,HCMV UL50-53 inh,Sa growth 42C second temp
COc1ccc(-c2nn3c(=O)cc(CN4CCN(C(=O)c5ccc(OC)c(OC)c5)CC4)nc3s2)cc1,81,104&95,x,91
O=C(CN1CCN(S(=O)(=O)c2cccc(C(F)(F)F)c2)CC1)c1ccc[nH]1,93,x,-24,90
O=C(c1cccc(C(F)(F)F)c1)N1CCCc2ccccc21,103,112,1,108
O=C(Nc1cc(F)ccc1F)C1CCCN(c2nc3cccnc3s2)C1 (stereo not drawn),x,107,-26,x
Cc1[nH]nc(-c2ccc(S(=O)(=O)NC3CC3)o2)c1C,x,105,-21,x
CNC(=O)C1CCN(C(=O)N2CC(C)Oc3ccccc32)CC1 (stereo not drawn),95,111,-9,95
CNC(=O)c1cccc(NC(=S)NC)c1,89,x,-17,79
Cc1ccc(C)n1CCN1CCN(S(=O)(=O)c2cc(Br)c(Br)s2)CC1,102,101,6,105
CCCNC(=O)c1cc(C)c2c(C)nn(-c3ccccc3)c2n1,75,100,x,81
NC(=O)CSc1nc2scc(-c3ccco3)c2c(=O)n1-c1ccccc1,110,x,-4,101
c1cc[n+](C[n+]2ccccc2)cc1,94,99,-48,85
CC1CN(C(=O)CS(=O)(=O)c2ccc(F)cc2)CC(C)O1 (stereo not drawn),x,95,-14,x
CC(C)(C)Nc1ncnc2c1sc1nc3c(cc12)COC(C)(C)C3,109,99,x,77
O=C(Nc1ccncc1)OC1CCCC1,94,101,2,86
CCOc1ccc(-c2nc(SCC(=O)Oc3ccc(C)cc3)n3[nH]c(=O)cc3n2)cc1,x,106,-29,x
Cc1ccc(NC(=O)Cn2nc3c(Oc4ccccc4C)nc4ccccc4n3c2=O)cc1,x,102,16,x
COCCOC(=O)c1c(C)oc2ccc(NS(=O)(=O)c3cc(C)ccc3C)cc12,x,105,-14,x
Cc1c(C=Nc2ccc(C(C)C)cc2)sc2ccccc12,94,93,-41,86
COc1cccc(C=Nc2ccccc2N2C(=O)c3ccccc3C2=O)c1O,102,102,-23,84
CCn1nnc(NC(=O)Cc2ccccc2)n1,92,x,0,86
CN(C(=O)CSC1=NCCS1)c1ccccc1,118,x,-24,88
CCOC(=O)N1CCN(C(=O)c2noc3c2CCCC3)CC1,104,106,2,106
N#CC1=CN(Cc2ccccc2)C=C(/C=N/Nc2ccc(F)cc2)C1,76,x,-97,77
C=CCn1c(CSc2nc3ccccc3s2)nnc1SCC(=O)NCCN1CCOCC1,81,102,-18,93
Fc1ccc(Cn2nnc3ccccc32)cc1,112,94,x,98
CN(Cc1ccccc1)c1ncnc2ccc(Br)cc12,108,107,-3,84
CC1CN(C(C#N)c2c(F)cccc2Cl)CC(C)O1 (stereo not drawn),114,99,x,81
COc1ccccc1NC(=O)c1cc2ccccc2o/c1=N\c1sc2c(c1C(N)=O)CCCC2,x,102,-24,x
COc1cccc(-c2csc(-c3nnn(-c4cccc(Cl)c4)c3N)n2)c1,x,112,-1,x
Cc1onc(-c2ccccc2)c1C(=O)N1CCCSC1=Nc1ccccc1,107,x,0,93
COc1cccc(-c2coc3cc4oc(=O)cc(C)c4cc23)c1,102,105,x,98

# Screening results: PubChem, ICCB-Longwood Screening Facility, Harvard Medical School
